Menin MLL FP FL: displaces fluorescein MLL peptide from human menin | AID 1766 | Fluorescence polarization, fluorescein-MLL peptide displacement from menin | 290,000 tested, under 10 active | FP activity change, % at 61.4 µM; inconclusive = falling polarisation curve, or a change in total fluorescence; inactive = total fluorescence flat and polarisation flat or rising; no compound was filed as active; the % refers to the polarisation; negative = inhibition;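 also: % of control where 0% means no effect; inhibitors lower the polarisation; unlabelled MLL peptide was the positive control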
TRPV1 PAM: human TRPV1 potentiation. Q8NER1. TRPV1-expressing cells, Fluo-8 calcium influx, capsaicin EC20 potentiation; host cell line not named in the record; control for the full effect not named in the record. potentiation, % at 8.33 µM. AID 540277. hit rate 0.02% among 320,000; active means potentiation above 80%; inconclusive means 30% to 80%; inactive means below 30%; also: 0% is about no effect
Target sequence (Q8NER1 whole entry, looked up): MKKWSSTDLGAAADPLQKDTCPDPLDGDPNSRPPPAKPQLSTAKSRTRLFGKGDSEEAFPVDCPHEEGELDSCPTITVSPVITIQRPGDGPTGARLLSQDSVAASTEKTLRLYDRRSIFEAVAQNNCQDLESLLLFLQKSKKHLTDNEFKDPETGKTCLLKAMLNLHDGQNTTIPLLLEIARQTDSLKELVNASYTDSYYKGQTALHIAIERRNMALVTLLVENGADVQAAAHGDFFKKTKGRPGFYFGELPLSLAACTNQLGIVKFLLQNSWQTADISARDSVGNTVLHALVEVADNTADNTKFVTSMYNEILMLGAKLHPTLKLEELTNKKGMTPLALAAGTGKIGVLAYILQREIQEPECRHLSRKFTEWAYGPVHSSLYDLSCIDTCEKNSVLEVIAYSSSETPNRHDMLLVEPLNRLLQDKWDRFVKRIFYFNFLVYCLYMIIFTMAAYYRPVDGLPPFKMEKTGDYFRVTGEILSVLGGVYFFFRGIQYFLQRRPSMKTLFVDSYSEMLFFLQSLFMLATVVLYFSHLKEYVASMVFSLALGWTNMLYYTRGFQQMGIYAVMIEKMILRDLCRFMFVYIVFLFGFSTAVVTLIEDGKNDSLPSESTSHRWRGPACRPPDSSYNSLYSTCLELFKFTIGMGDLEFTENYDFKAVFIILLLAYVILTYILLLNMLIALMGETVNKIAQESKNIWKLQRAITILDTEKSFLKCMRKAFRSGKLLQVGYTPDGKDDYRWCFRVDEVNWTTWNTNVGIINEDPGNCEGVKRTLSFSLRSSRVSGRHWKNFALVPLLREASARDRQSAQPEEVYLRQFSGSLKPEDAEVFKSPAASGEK
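TRPV1-expressing cells were cultured overnight at 35.5C and loaded with Fluo-8 calcium dye for 40 to 90 min at room temperature. After a 10 s baseline, compound was added and calcium influx was read kinetically for 3 min (ex 480/em 520 nm).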
ClpP mod: qHTS Assay for Activators of ClpP; purified B. subtilis ClpP, FRET peptide cleavage, 20 min; AID 651965, 2013; hit rate 1.9% among 340,000; Potency, µM (top dose mostly 57.5 µM), without a hit: at the top dose activity change, negative = active; active = well fitted falling curve with a large enough effect; inconclusive = small, poorly fitted or top-dose-only effect; inactive = no such curve, though single readings can be large or run the other way; also: potency is read from the fitted curve at half-maximal effect; the source files actives as falling curves though it sought activators and does not explain the sign; nearly all actives have a fitted effect of over 65% in size; many hits overshoot -100%
Target sequence (P80244 whole entry, looked up): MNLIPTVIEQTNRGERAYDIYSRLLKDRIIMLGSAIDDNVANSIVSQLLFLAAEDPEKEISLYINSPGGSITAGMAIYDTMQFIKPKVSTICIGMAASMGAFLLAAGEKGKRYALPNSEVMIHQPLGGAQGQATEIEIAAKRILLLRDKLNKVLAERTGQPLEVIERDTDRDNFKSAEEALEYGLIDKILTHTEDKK
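Purified B. subtilis ClpP, 10 microg/mL final in Tris/HCl pH8 with KCl, BSA, glycerol and Tween-20, cleaved an Abz/nitrotyrosine-quenched decapeptide. Fluorescence (ex 320, em 430) was read at 0 and 20 min at room temperature. Delta was normalized to 5.8 microM ADEP and DMSO/no-enzyme controls.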
gsp ag: activates gsp, the McCune-Albright syndrome mutation | AID 624287 | Potency, µM (titrated, usually from 76.9 µM), for the others: at the highest dose activation (cAMP increase), usual class: activators | gsp mutant cells, cAMP HTRF, 30 min; control for the full effect not named in the record | hit rate 0.13% among 340,000; active = well fitted activation curve with a large enough effect; inconclusive = small, poorly fitted or top-dose-only effect, or another doubt; inactive = no such curve, though single readings can be large or run the other way; cell line not stated here;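 also: phosphodiesterase inhibitor Ro 20-1724 added with compounds to block cAMP breakdown; potency is read from the fitted curve at half-maximal effect; nearly all actives have a fitted effect of over 60% in size; about a fifth of the inactives were tested at one dose only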
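Cells stably selected in G418 were plated at 2000/well, grown 16-24 hr, then given compounds in DMSO with the PDE inhibitor […] (300 uM solution added) for 30 min at 37C; cAMP was read by HTRF.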
CtBP-E1A inh: blocks the CtBP interaction with E1A; AlphaScreen GST-E1A/His-CtBP binding, 1536-well; stronger effect = lower value; control for the full effect not named in the record; activity change, % (no concentration beside the values); hit rate 0.49% among 340,000; in the data active means activity change below about -65%; inconclusive means about -30% to -65%; inactive means above about -30%; also: % is scaled to controls: 0 for no effect and ±100 for the full control effect; compound concentration not given in the record
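AlphaScreen with 125 nM GST-E1A and 125 nM His-CtBP (5X stocks) in Tris pH 8.0, 300 mM NaCl, BSA, Tween 20, TCEP. Compounds preincubated 2 h at 37 deg C, then glutathione donor/nickel acceptor beads added for 1 h at 37 deg C in dark.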
Sfp inh: inhibitors of Bacillus subtilis Sfp phosphopantetheinyl transferase; AID 1490; Biochemical Sfp PPTase activity, qHTS; Potency, µM, for inactives: max response, negative = inhibition, actives largely listed as inhibitors; Q9F4F7; hit rate 3.5% among 310,000; active = well fitted inhibition curve with a large enough effect; inconclusive = small, poorly fitted or top-dose-only effect, or another doubt; inactive = no such curve, though single readings can be large or run the other way;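 also: the enzyme is Sfp with the accession as filed and its product quenches rhodamine fluorescence; potency is read from the fitted curve at half-maximal effect; 0% = enzyme reaction without inhibitor and -100% = no enzyme wells; top concentration of the series not given in the record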
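After 15 min at room temperature with compound, 15 nM Sfp received 5 uM rhodamine-CoA plus 12.5 uM BHQ-2-ybbR (50 mM Hepes pH 7.6, 10 mM MgCl2). Rate came from the fluorescence difference over 30 min, ex 525/em 598 nm.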
gsp antag: antagonists of gsp mutant (McCune-Albright syndrome); Potency, µM (highest dose often 76.9 µM), inactives show top-dose activity change, negative = inhibition, usual class: inhibitors; hit rate 0.4% among 340,000; gsp-mutant cells, cAMP HTRF, 30 min; control for the full effect not named in the record; active = falling curve of any shape with a large fitted effect; inconclusive = falling curve, mostly with a smaller effect; inactive = flat or rising curve; cell line not stated here;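 also: intracellular cAMP measured with PDE inhibitor Ro 20-1724 present during compound exposure; potency is read from the fitted curve at half-maximal effect; % is scaled to controls: 0 for no effect and ±100 for the full control effect; nearly all actives have a fitted effect of over 65% in size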
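HTRF cAMP measurement after 30 min RT detection following 30 min, 37C compound treatment alongside […] (added as 300 uM solution) in G418-selected cells seeded at 2000/well and grown 16–24 h.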
An asterisk follows results filed as active; ? = inconclusive; nt = no result given; & = joins results of further samples; [ ] = remark or other dose.

SMILES	Menin MLL FP FL	TRPV1 PAM	ClpP mod	gsp ag	CtBP-E1A inh	Sfp inh	gsp antag
CN1C(=O)/C(=C\c2ccc(N(C)C)cc2)OC1=S	?	4	nt	-11%	8	15%	0%
Cc1cccc(-c2csc(N)c2C(=O)OC(C)C)c1	5.9	5	-0.2%	?	4	-19%	?
Cc1csc(NC(=O)c2c(O)c3c(n(CC(C)C)c2=O)CCCC3)n1	0.0	-8	1.1%	27%	-2	-3%	-18%
Cc1ccc(-c2cc(Cc3ccncc3)c(=O)[nH]n2)cc1	7.0	-28	-0.5%	11%[15.4 µM]	-1	7%	0%
CC(=O)NC(C)C(=O)OCC(=O)c1ccc(-c2ccccc2)cc1 (stereo not drawn)	-1.8	-2	nt	6%[15.4 µM]	1	4%	-8%
COc1ccc(CNC(=O)C(OC(=O)c2nsc(Cl)c2Cl)C(C)C)cc1 (stereo not drawn)	1.2	3	-0.6%	2%	-14	13%	2%
COCCNC(=O)c1cccc(OC2CCN(Cc3ccc(OC(F)F)cc3)CC2)c1	-1.3	-1	nt	-65%[inhibitor]	-6	15%	0%
Cc1ccccc1-n1nc2c(c1NC(=O)c1cc3ccccc3oc1=O)CS(=O)C2 (stereo not drawn)	-0.1	-15	0.3%	-89%[inhibitor]	-2	11%	10%
O=C(/C=C/c1cccs1)c1cc(F)ccc1OC(=O)N1CCOCC1	nt	nt	0.9%	-19%	-3	nt	-4%
COc1ccc(N2CCc3c(C)nc4c(OC)cc(OC)cc4c32)c(OC)c1	5.2	-1	-8.3%	2%	-2	11%	-2%
CCOC(=O)C1CCCCN1Cc1cccc(C(F)(F)F)c1 (stereo not drawn)	0.0	-15	0.3%	7%	3	-12%	2%
COc1cc2c(cc1NC(=O)COCC(=O)O)oc1ccccc12	-0.4	9	nt	9%	-30	4%	3%
CCOc1ccc(-c2noc(CCCC(=O)NC3CCCC3)n2)cc1OC	-1.4	-42	-1.1%	16%[15.4 µM]	18	15%	-6%
O=C(CN1C(=O)NC2(CCCC2)C1=O)Nc1ccc(Cl)cc1F	-5.1	-1	nt	-16%	-1	21%	9%
C/C(=N\NC(=O)c1ccc(O)cc1)c1ccc2c(c1)Nc1ccccc1S2	8.5	-25	nt	?	-17	-2%	?
O=C(CCCN1C(=O)c2ccccc2C1=O)NCc1ccco1	3.2	9	-1.3%	2%	4	4%	3%
Cc1ccccc1N=Nc1ccc(O)c2ncccc12	1.0	-7	-4.2%	-7%	-26	3%	8%
CN(C(=O)COC(=O)c1ccc(NS(=O)(=O)c2cccs2)cc1)C1CCCCC1	-6.4	5	0.4%	7%	nt	3%	-22%
Cc1csc(NC(=O)CSc2nnc(-c3cccs3)n2C)n1	0.2	5	-3.5%	-43%[inhibitor]	-6	17%	-3%
COC(=O)c1c(C)[nH]c(C(=O)CSc2ccc(Cl)cc2)c1C	2.3	0	-0.5%	-43%[inhibitor]	0	6%	-10%
CC(C)(C)N1CCC1C(N)=O (stereo not drawn)	0.1	7	nt	nt	nt	1%	nt
CCOC(=O)Nc1ccc2nc3n(c(=O)c2c1)CCCCC3	-0.6	-1	-0.2%	-1%[15.4 µM]	0	-2%	4%
Cc1nn(-c2ccccc2)c(N2CCCC2)c1/C=N/NC(=O)c1cc(-c2ccccn2)nc2ccccc12	1.1	7	-1.7%	-19%	-17	4%	-11%
C=CCN1C(=O)CS/C1=N\N=C\c1cccc([N+](=O)[O-])c1	-1.1	0	nt	4%[15.4 µM]	4	1%	9%
Cc1ccc(OCC(O)CN2CCN(CC(O)COc3ccc(C)cc3Cl)CC2)c(Cl)c1 (stereo not drawn)	0.7	5	0.7%	0%	1	-4%	7%
COc1ccccc1CCNC(=O)NC1CCCCC1	1.1	1	-1.2%	9%	7	4%	1%
Nc1nonc1C(=O)N1CCCC1	2.5	3	nt	-43%[inhibitor]	0	17%	1%
COc1ccc(NC(=O)CCCN2C(=O)C(c3ccccc3)Oc3cccnc32)c(OC)c1 (stereo not drawn)	nt	-17	0.3%&-0.2%	?	-18	0%	0%
COc1ccc(CN2C(=O)CN(C3CCCCCC3)C(=O)C2c2ccc(OC)c(OC)c2)cc1 (stereo not drawn)	5.7	-14	-0.8%	3%	5	3%	-21%
Cc1ccccc1-n1nc(C)c2cc(C(=O)NC3CC3)sc21	4.4	-15	-9.7%	?	-1	-5%	-1%
Cc1ccc2c(c1)NC(=O)C(CC(=O)NCCCN1CCCCC1)O2 (stereo not drawn)	3.2	-9	0.5%	0%	-2	0%	2%
CN(C(=O)N1CCN(S(=O)(=O)c2ccccc2)CC1)c1ccccc1	0.8	5	0.3%	-13%	-4	-3%	3%
C=CCn1c(Oc2ccc(C=O)cc2OCC)nc2c1c(=O)n(C)c(=O)n2C	2.4	4	0.8%	?	nt	5%	-8%
Cc1cc(C(=O)N/N=C\c2cc(C(C)(C)C)c(O)c(C(C)(C)C)c2)n[nH]1	-1.7	-5	nt	?	-2	-6%	?
Cc1cccc(C)c1OCC(=O)Nc1ccncc1	-6.2	-10	1.2%	8%[15.4 µM]	-2	17%	6%
O=C(O)C1C2C=CC(C2)C1C(=O)N1CCN(CCO)CC1 (stereo not drawn)	-5.5	10	-0.5%	22%[15.4 µM]	1	20µM*	7%
Oc1c(Cl)cc(Cl)cc1CNc1nc2ccccc2[nH]1	3.5	2	-0.5%	5%[15.4 µM]	?	16%	0%
Cc1nc2[nH]c(=S)[nH]c2cc1Br	-0.8	-20	?	12%	5	-12%	-5%
CN(C(=O)c1cccc(NC(=O)Cc2cccc(NC(=O)C3CCN(C(=O)c4ccccc4)CC3)c2)c1)C1CCCC1	nt	nt	-1.5%	nt	-3	nt	11%
CC(=O)NC(C)Cc1cn(Cc2ccccc2)c2ccccc12 (stereo not drawn)	-0.3	10	-18%	-14%	nt	7%	-8%
C/C(=N\S(=O)(=O)c1ccc(C)cc1)N1CCCCC1	0.2	-8	nt	-34%[inhibitor]	-1	27%	-1%
O=C(COC(=O)c1ccc([N+](=O)[O-])o1)Nc1ccc2c(c1)OCO2	nt	nt	-0.3%	-1%[15.4 µM]	-2	nt	9%
O=C(CSc1nc2ccccc2o1)N1c2ccccc2Sc2ccc(Cl)cc21	2.8	4	-1.4%	-14%	3	-1%	-4%
O=C1c2ccccc2C(=O)N1/N=C/c1ccc(O)c(O)c1O	4.6	17	nt	-18%[15.4 µM]	?	7.9µM*	-10%
CCOC(=O)Nc1nc(-c2ccccc2)c(C(=O)c2ccccc2)s1	-1.3	-13	1.4%	?	3	15%	11%
Cc1nn(C)cc1/C=C/C(=O)c1ccccc1	3.2	-11	-13%	6%	0	12%	-4%
COc1ccccc1C(=O)OCCc1ccccc1	nt	nt	nt	20%	13	nt	5%
Cc1nc2c([nH]c3ccc(Br)cc32)s1	3.8	3	-0.2%	-54%[inhibitor]	-2	3%	8%
COc1ccc(-c2c(C)cc3oc(=O)cc(-c4ccccc4)c3c2C)cc1C=O	0.0	nt	-9.2%	nt	-3	-21%	-8%
Cc1ccc(CC2(OCCN(C)C)CCC(C(C)(C)C)CC2)cc1 (stereo not drawn)	nt	nt	-2.9%	4%	-21	nt	11%
COC(=O)COc1cccc(NC(=O)COc2ccccc2)c1	4.4	0	-1.4%	-17%	16	28%	-12%
Cc1cccc(N2CCN(C(=O)c3cccc(N4C(=O)C5CC=CC(C)C5C4=O)c3)CC2)c1C (stereo not drawn)	-1.7	-4	-1.2%	2%	-2	-3%	-31%
NC(=O)CC(NC(=O)Cc1cccc2ccccc12)c1ccc(N2CCN(c3ccccn3)CC2)c([N+](=O)[O-])c1 (stereo not drawn)	0.7	30	0.0%	-11%	-12	1%	-13%
CC(C)C(=O)Nc1c(-c2ccccc2F)c(=O)c2ccccc2n1C	-13	9	1.3%	13%	7	12%	11%
c1ccc(CNCc2ccc(CNCc3ccccc3)cc2)cc1	nt	nt	0.4%	-48%[inhibitor]	3	nt	nt
CN(C)c1ccc(-c2nnn(Cc3ccccc3Br)n2)cc1	1.9	2	28µM*	-4%	-26	-11%	-2%
CCN(CC)C(=O)c1nc[nH]c1C(=O)N(CC)CC	nt	5	-0.2%	nt	7	nt	15%
CC1CCN(c2oc(-c3cccc4ccccc34)nc2C#N)CC1	7.1	-9	5.6µM*	?	6	9%	-3%
Cc1csc(SCC(=O)NC2CCS(=O)(=O)C2)n1 (stereo not drawn)	nt	nt	nt	6%	-5	nt	0%
O=C(Nn1c(O)c(C=C2N=c3ccccc3=N2)sc1=S)c1ccccc1	10	-19	1.5%	15%	-12	-15%	4%
(next part)
SMILES	Menin MLL FP FL	TRPV1 PAM	ClpP mod	gsp ag	CtBP-E1A inh	Sfp inh	gsp antag
O=C1NC2(CCCCC2)OC12CCCCC2	nt	nt	-17%	-20%	9	nt	5%
S=C1NCCN1CC1CCN(CCC23CC4CC(CC(C4)C2)C3)CC1	nt	nt	2.7%	nt	-3	nt	8%
CC(C)c1ccc(S(=O)(=O)NC2CCCC2)cc1	nt	-10	-0.3%	1%	6	14%	7%
O=C(CS(=O)(=O)c1ccccc1)Nc1ccc(S(=O)(=O)Nc2ncccn2)cc1	-2.1	3	nt	3%[15.4 µM]	-1	10%	-2%
COc1ccc(NS(=O)(=O)c2ccc(C(=O)N3CCCCCC3)cc2)cc1	nt	nt	nt	-21%	0	nt	?
C/C(=N/NS(=O)(=O)c1cc(C)ccc1C)c1ccncc1	nt	1	-1.2%	21%	4	-5%	0%
CCC(C)N=CC1=C(O)CC(c2ccccc2)CC1=O (stereo not drawn)	2.2	-19	-0.6%	0%	8	8%	20%
CCN(CC(=O)Nc1c(F)cccc1F)C(=O)c1ccc(C)c(S(=O)(=O)N2CCCCC2)c1	nt	10	nt	-6%[15.4 µM]	-3	nt	-28%
S=c1[nH]nc(-c2ccco2)n1/N=C/c1ccccn1	1.6	3	nt	nt	nt	79µM*	nt
O=c1[nH]c(C2CCN(S(=O)(=O)Cc3ccccc3)CC2)nc2c1nnn2Cc1ccccc1Cl	2.9	2	nt	14%[15.4 µM]	-2	-24%	-13%

Compound activity deposited in PubChem BioAssay by National Center for Advancing Translational Sciences (NCATS).
